# MT1-MMP act inh: MT1-MMP (human) activation inhibition. P50281. hit rate 0.061% among 360,000. HT1080 RFP-PRO-GFP cells, GFP/RFP ratio fluorescence, overnight; percent of plate control window, DMSO zero. GFP/RFP ratio change, % at 20 µM;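 active = GFP/RFP ratio change of at least 30% with cell ATP level not reduced by more than half and red fluorescence within 50% of control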; also: strong numbers were not always called active
#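 Assay system: HT1080 RFP-PRO-GFP cells | Dosing: 20 µM single dose, 1% DMSO | Incubation: Cells overnight before dosing, compound overnight, 37 °C, 5% CO2 | Evaluation: GFP/RFP fluorescence ratio | Control set: DMSO-only wells and HT1080 RFP-L50D-GFP cell wells as references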
# PABP polyA inh: PABP-poly(A) binding inhibition | PABP-poly(A) RNA binding, fluorescence polarization | hit rate 1% among 290,000 | inhibition, % at 35 µM | P11940;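 active = 50% or more with normal probe brightness, or confirmed in later tests; inconclusive = above 50% with abnormal brightness, or retests that disagree; inactive = below 50% or failed in later tests; about a fifth of its hits are not listed in these tables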;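 also: calls also rest on retests at 20 µM and on dose response follow-up; controls were probe without protein and protein plus probe with vehicle; some compounds called inactive have numbers as strong as hits; many hits fall short of the cut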
# HIV Env fusion: inhibitors of HIV Env-mediated cell fusion; HeLa-JRFL Env/CEM21 cell fusion, luciferase; hit rate 1.1% among 360,000; inhibition, % at 12.3 µM;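 active = mean replicate inhibition score of at least 50 and every replicate individually at or above 50; inconclusive = only one of the two criteria met; inactive = mean below 50 and not all replicates reaching 50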;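 also: 0% = plate neutral controls and 100% = maraviroc near 300 nM; one replicate is shown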
# Rce1 inh: blocks yeast Ras-converting enzyme; yeast membranes, quenched prenylated peptide cleavage fluorescence; Q03530; AID 2563; hit rate 0.27% among 290,000; calls only;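 active = fall in fluorescence gain of 50% or more versus controls, with final raw signal at or below 3038400; inconclusive = same 50% fall but final raw signal above 3038400; inactive = fall in fluorescence gain under 50%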;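 also: plate controls were neutral control wells for no effect and wells lacking membranes for full effect; tested at 10 µM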
# Target sequence (Q03530 whole entry, looked up): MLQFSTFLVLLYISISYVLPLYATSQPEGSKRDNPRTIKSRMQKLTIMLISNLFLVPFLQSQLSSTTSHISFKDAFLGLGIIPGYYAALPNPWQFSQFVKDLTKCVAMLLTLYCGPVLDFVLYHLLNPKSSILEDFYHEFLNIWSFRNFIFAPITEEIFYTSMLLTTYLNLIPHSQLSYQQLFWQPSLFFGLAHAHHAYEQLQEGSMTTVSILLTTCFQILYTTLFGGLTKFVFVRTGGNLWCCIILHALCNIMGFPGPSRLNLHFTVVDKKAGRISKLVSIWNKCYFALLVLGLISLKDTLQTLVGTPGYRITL
# CSC inhib: blocks cancer stem cells; cancer stem cell-like cells viability, luminescence; inhibition, % at 7.5 µM; hit rate 1.1% among 300,000;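 active = mean at 75% or more and at least half the replicates too; inconclusive = mean and replicates disagree; tested in HMLE shEcad cells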;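 also: 0% = median of negative and 100% = median of positive control wells; the first replicate is given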
# Yeast UUG start: alters start codon recognition fidelity in yeast; S. cerevisiae UUG-firefly luciferase reporter, luminescence/redox ratio; hit rate 0.13% among 350,000; activity score, % at 18.7 µM;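 active = replicate mean at a twofold rise or more, about +100% in these data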;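 also: firefly luciferase made from a UUG start codon reports start codon fidelity; reporter light over untreated wells divided by growth signal over untreated wells; some hits fall short of that in this replicate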
# eIF4H FP inh: inhibitors of RNA binding by human eIF4H | Q15056 | inhibition, % at 35 µM | AID 2012 | eIF4H fluorescence polarization binding assay | hit rate 0.94% among 290,000;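 active = 50% or more with normal probe brightness, or confirmed in later tests; inconclusive = above 50% with abnormal brightness, or retests that disagree; inactive = below 50% or failed in later tests; about a fifth of its hits are not listed in these tables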;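 also: calls also rest on retests at 20 µM and on dose response follow-up; 0% = protein and probe with vehicle and 100% = probe without protein; strong numbers were not always called active; many hits fall short of the cut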
# eIF4H FP inh retest: also measured in eIF4H FP inh; calls as there; inhibition, %; compound at 20 µM; confirmation average;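 mean of two retest wells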
# PABP polyA inh retest: further read-out of PABP polyA inh, marked with its call; inhibition, %; compound at 20 µM; confirmation repeats;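 mean of two retest wells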
# MT1-MMP act inh RFP: recorded beside MT1-MMP act inh, whose call it bears; RFP signal change, %; measured here: RFP expression control read;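 0 = vehicle wells; hits needed this value within 50% of zero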
# Numbers without * were called inactive; i = inactive; ? = inconclusive; nt = no result given.
SMILES,MT1-MMP act inh,MT1-MMP act inh RFP,PABP polyA inh,HIV Env fusion,Rce1 inh,CSC inhib,Yeast UUG start,eIF4H FP inh,others
O=C(NCc1ccccc1Cl)c1cc([N+](=O)[O-])ccc1Cl,6,0,-2,14,i,19,nt,9,
C[C@@]12C(=O)N(CCc3c[nH]c4ccccc34)CC(=O)N1[C@H]1c3ccccc3OC[C@@H]1[C@@H]2c1ccccc1,-2,-3,nt,82*,nt,-14,-12,nt,
CC12CN(C(=O)c3ccccc3)C3(C#N)CC1CCC23C (stereo unspecified),1,1,0,nt,i,59,-17,-6,
Cc1csc2ncc(C(=O)NCCc3ccccc3)c(=O)n12,0,0,-1,-29,i,0,-4,-5,
O=C(N/N=C/c1ccc(Br)s1)c1ccccn1,2,4,-7,-293,i,8,-30,2,
CCCCn1c(SCc2cc(=O)[nH]c3ccccc23)nc2c1c(=O)n(C)c(=O)n2C,nt,nt,-4,nt,i,nt,nt,-5,
CC1CC(CN)CC(CO)C1 (stereo unspecified),0,-1,-4,-15,i,nt,nt,-4,
COc1ccccc1NC(=O)c1ccccc1NS(=O)(=O)N1CCCC1,0,-1,-8,nt,i,11,-16,-5,
NC(=O)c1ccc(-c2c(-c3ccccc3)sc3ccccc23)cc1,0,-3,nt,-16,nt,-8,26,nt,
Cc1sc2ncnc(SC(C)C(=O)N3c4ccccc4Sc4ccccc43)c2c1C (stereo unspecified),-5,-5,5,41,i,?,nt,-1,
O=C(C1CCCN(S(=O)(=O)c2cccc3nonc23)C1)N1CCC(Cc2ccccc2)CC1 (stereo unspecified),-4,-12,5,nt,i,48,-14,-2,
O=C(NNC(=O)c1cnccn1)c1ccc(Cl)cc1,2,3,-2,2,nt,3,nt,-6,
Nc1nonc1-n1nnc(C(=O)N/N=C/c2ccc3c(c2)OCO3)c1CSc1ccccc1,5,-2,1,4,i,-6,-22,-9,
COc1ccc(NC2=C(C(C)=O)C(c3ccc(OC)cc3)C(C(C)=O)C(C)(O)C2)cc1 (stereo unspecified),nt,nt,6,2,i,5,2,-9,
COc1cc(CNc2ccc(CNc3ncn[nH]3)cc2)ccc1OCC(=O)NC(C)(C)C,-7,-26,-2,28,i,11,nt,-10,
Cc1ccc(S(=O)(=O)N2CCN(Cc3cccnc3)CC2)cc1,-2,-3,-2,8,i,-13,-11,3,
C=CCN(c1nc(C)cc(OC)n1)S(=O)(=O)c1ccccc1,3,4,1,-12,i,9,-13,-6,
COC(=O)C1SCC2C(=O)N(Cc3ccc(F)cc3)CC(=O)N21 (stereo unspecified),1,8,5,-10,i,-9,-14,2,
C=CCc1cccc2cc(C(=O)N3CCOCC3)c(=O)oc12,-1,0,6,-33,i,-2,-3,-4,
O=C(NC(NNc1ccc([N+](=O)[O-])cc1)(C(F)(F)F)C(F)(F)F)c1ccc(Cl)cc1,-2,-6,5,-51,i,34,-9,-8,
CCCCCCC(=O)NCC(=O)OCC(=O)c1ccccc1,2,4,-2,nt,i,-9,5,0,
CC(=O)N1c2c(cc(Br)cc2S(=O)(=O)NCC2COc3ccccc3O2)CC1C (stereo unspecified),3,-3,-9,14,nt,-11,-3,-11,
CN1CCCC(OC(=O)c2cccc(S(=O)(=O)N3CCCCCC3)c2)C1 (stereo unspecified),3,1,8,-6,i,42,7,-3,
COc1ccc(OCC(=O)Nc2c(C(=O)N3CCN(C)CC3)oc3ccccc23)cc1,-2,1,-4,6,i,-3,12,8,
C=CCn1c(SCc2c(C)noc2C)nc2sc(C)c(C)c2c1=O,14,-9,4,68*,i,59,-15,2,
O=C(N/N=C/c1ccc([N+](=O)[O-])cc1)c1ccc2nc[nH]c2c1,6,4,9,nt,i,26,-5,12,
Cc1nonc1N1CCN(Cc2cn[nH]c2-c2ccc(F)cc2F)CC1,4,-1,-1,-6,i,0,nt,-10,
COc1ccc(C2(C(=O)NCC3CCCO3)CCOCC2)cc1 (stereo unspecified),7,4,-10,-45,i,-12,-16,-4,
CC(=O)c1cccc(NC(=O)C(C)OC(=O)CCN=C2NS(=O)(=O)c3ccccc32)c1 (stereo unspecified),2,-1,nt,4,i,21,-10,nt,
Cc1ccccc1C1=NC(C(F)(F)F)(C(F)(F)F)c2c(n(C)c(=O)n(C)c2=O)N1,-5,-6,-4,41,i,-2,-19,1,
COc1ccc(-c2csc(NC(=O)COc3ccc(N(C)S(=O)(=O)c4ccc(C)cc4)cc3)n2)cc1,-1,-19,12,nt,i,3,nt,-13,
O=C(c1ccc2nc(-c3ccco3)c(-c3ccco3)nc2c1)N1CCN(c2ncccn2)CC1,7,2,67*,24,i,4,-5,85*,eIF4H FP inh retest=101*;PABP polyA inh retest=102*
N#CC1(NC(=O)COC(=O)CNC(=O)c2sc3ccccc3c2Cl)CCCCC1,6,8,nt,-12,nt,-11,3,nt,

# By substructure: the entries above with four or more nitrogen atoms
SMILES,MT1-MMP act inh,MT1-MMP act inh RFP,PABP polyA inh,HIV Env fusion,Rce1 inh,CSC inhib,Yeast UUG start,eIF4H FP inh,others
CCCCn1c(SCc2cc(=O)[nH]c3ccccc23)nc2c1c(=O)n(C)c(=O)n2C,nt,nt,-4,nt,i,nt,nt,-5,
O=C(C1CCCN(S(=O)(=O)c2cccc3nonc23)C1)N1CCC(Cc2ccccc2)CC1 (stereo unspecified),-4,-12,5,nt,i,48,-14,-2,
O=C(NNC(=O)c1cnccn1)c1ccc(Cl)cc1,2,3,-2,2,nt,3,nt,-6,
Nc1nonc1-n1nnc(C(=O)N/N=C/c2ccc3c(c2)OCO3)c1CSc1ccccc1,5,-2,1,4,i,-6,-22,-9,
COc1cc(CNc2ccc(CNc3ncn[nH]3)cc2)ccc1OCC(=O)NC(C)(C)C,-7,-26,-2,28,i,11,nt,-10,
O=C(NC(NNc1ccc([N+](=O)[O-])cc1)(C(F)(F)F)C(F)(F)F)c1ccc(Cl)cc1,-2,-6,5,-51,i,34,-9,-8,
O=C(N/N=C/c1ccc([N+](=O)[O-])cc1)c1ccc2nc[nH]c2c1,6,4,9,nt,i,26,-5,12,
Cc1nonc1N1CCN(Cc2cn[nH]c2-c2ccc(F)cc2F)CC1,4,-1,-1,-6,i,0,nt,-10,
Cc1ccccc1C1=NC(C(F)(F)F)(C(F)(F)F)c2c(n(C)c(=O)n(C)c2=O)N1,-5,-6,-4,41,i,-2,-19,1,
O=C(c1ccc2nc(-c3ccco3)c(-c3ccco3)nc2c1)N1CCN(c2ncccn2)CC1,7,2,67*,24,i,4,-5,85*,eIF4H FP inh retest=101*;PABP polyA inh retest=102*

# Random draw from the library; overall some 2.9% were active at least once.
